# Methyltransferases = Primary Screen for Target Class Profiling of Small Molecule Inhibitors of Methyltransferases. purified enzyme, MTase-Glo SAH luminescence; stronger effect = lower value. calls only at 40 µM. actives 3.9% (n = 25,000). AID 1745853, 2022; active = -50% or lower on at least one of six enzymes; inconclusive = the cases between; inactive = as a rule above -30% on all six;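 further: enzymes were COMT GAMT GNMT HNMT NNMT and PNMT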
#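 Each enzyme was assayed with SAM and its substrate. SAH formation detected by MTase-Glo luminescence; single-point 40 uM screen[…].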
# Calls only; i = inactive; ? = inconclusive. On the % scale 0 is the no-effect control and ±100 the full control effect.
SMILES	Methyltransferases
COc1ccc(CCNC(=O)c2cc3n(n2)CC(C)(C(=O)NC2CCCCC2)N(C)C3=O)cc1OC (configuration not stated)	i
Cc1cc(CS(=O)(=O)c2ccccc2)cc(OCc2ccc(CN3CCC[C@@H]3CO)cc2)c1	?
COC(=O)[C@H](NC(=O)[C@@H]1[C@@H](NC(=O)Nc2cccc(OC)c2)CCN1C(=O)c1cnccn1)C(C)C	i
COc1ccc(Cn2c(=O)c3ccccc3n3c(-c4ccc(C)cc4)nnc23)cc1	i
CCOC(=O)c1cc2n(n1)CC(C)(C(=O)NC1CCC(C)CC1)N(Cc1ccc(C)cc1)C2=O (configuration not stated)	i
CC(C)[C@@H]1C[C@@H]2C[C@@H](Nc3ccccn3)C[C@]2(c2ccccc2)CO1	i
CSc1cccc(N2C(=O)c3cc(C(C)(C)C)nn3CC2(C)C(=O)NC2CCCCC2)c1 (configuration not stated)	i
CC(C)Cn1c(=O)c2ccc(C(=O)NC(C)C)cc2n2c(=O)n(CC(=O)Nc3cccc(Cl)c3)nc12	i
CN1CCN(CCNC(=O)CCn2ccc3cc(S(=O)(=O)N4CCCCC4)ccc32)CC1	i
Cc1cc(Nc2ncc3cc(-c4c(Cl)cccc4Cl)c(=O)n(C)c3n2)ccc1F	?
COc1ccc(C)cc1NC(=O)Cn1c(=O)oc2cc(S(=O)(=O)N3CCCCC3)ccc21	i

# Structures from the list above that have an aryl methoxy group, in the order listed:
SMILES	Methyltransferases
COc1ccc(CCNC(=O)c2cc3n(n2)CC(C)(C(=O)NC2CCCCC2)N(C)C3=O)cc1OC (configuration not stated)	i
COC(=O)[C@H](NC(=O)[C@@H]1[C@@H](NC(=O)Nc2cccc(OC)c2)CCN1C(=O)c1cnccn1)C(C)C	i
COc1ccc(Cn2c(=O)c3ccccc3n3c(-c4ccc(C)cc4)nnc23)cc1	i
COc1ccc(C)cc1NC(=O)Cn1c(=O)oc2cc(S(=O)(=O)N3CCCCC3)ccc21	i

# The list is partial; the hit share may differ from the screen's.
